Screening results as filed in PubChem BioAssay.
VDR inh: inhibitors of human vitamin D receptor. 400,000 compounds, 0.93% hits. AID 504847. P11473. Potency, µM, for the others: max response, negative = inhibition, hits mostly inhibitors. VDR-SRC2-3 peptide fluorescence polarization, 2 h; active = well fitted inhibition curve with a large enough effect; inconclusive = small, poorly fitted or top-dose-only effect, or another doubt; inactive = no such curve, though single readings can be large or run the other way; also: series mostly up to about 120 µM
Target sequence (P11473 whole entry, looked up): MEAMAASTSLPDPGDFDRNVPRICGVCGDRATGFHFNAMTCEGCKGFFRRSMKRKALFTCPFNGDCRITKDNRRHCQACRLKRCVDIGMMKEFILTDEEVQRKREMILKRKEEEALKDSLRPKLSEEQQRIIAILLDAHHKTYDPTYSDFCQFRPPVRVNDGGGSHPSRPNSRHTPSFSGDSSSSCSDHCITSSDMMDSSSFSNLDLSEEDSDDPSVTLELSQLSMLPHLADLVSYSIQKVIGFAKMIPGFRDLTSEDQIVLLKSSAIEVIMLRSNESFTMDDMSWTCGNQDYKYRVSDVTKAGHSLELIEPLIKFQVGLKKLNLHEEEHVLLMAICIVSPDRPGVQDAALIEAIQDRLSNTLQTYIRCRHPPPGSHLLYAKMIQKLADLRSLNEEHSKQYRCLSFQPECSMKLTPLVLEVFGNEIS
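The screen uses fluorescence polarization to detect compounds that interfere with recruitment of the SRC2-3 coactivator peptide to VDR; plates are read after 2 h at room temperature.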
* = called active by the depositor; & = joins results of further samples; [ ] = another dose, or the depositor's remark. % is scaled to controls: 0 for no effect and ±100 for the full control effect; potency is read from the fitted curve at half-maximal effect.

What do the screens show for `CCOC(=O)C1(CC2CCCCO2)CCN(Cc2nc3ccccc3[nH]2)CC1` (stereo unspecified)?
VDR inh: 3%

What do the screens show for `COc1ccc(C(=O)NCc2ccc(N3CCN(C)CC3)cc2)cc1`?
VDR inh: -5%

What do the screens show for `O=C(O)CCN1c2cccc3cccc(c23)S1(=O)=O`?
VDR inh: 0%

Results for CCC1(c2ccccc2)ON(c2c(Br)cccc2Br)C1=O (stereo unspecified) ?
VDR inh: inconclusive

Results for CCn1c(C(=O)N2CCC(C(=O)NCCc3ccccc3)CC2)cc2sccc21 ?
VDR inh: -3%

How did CN1CCN(c2nc(-c3ccccc3)nc(-c3ccccc3)c2C#N)CC1 do in these assays?
VDR inh: 11%

How did COC(=O)c1c(C)sc(-c2c(-c3ccc(OC)c(F)c3)[nH]c3c2c(=O)n(C)c(=O)n3C)c1O do in these assays?
VDR inh: 5%

Results for COC(=O)CSc1nnc(-c2cccnc2)o1 ?
VDR inh: 24%

What do the screens show for `CCc1cc(=O)oc2cc(C)cc(OC(C)C(=O)NC3CC(C)(C)NC(C)(C)C3)c12` (stereo unspecified)?
VDR inh: -19%

Results for FC(F)(F)c1nc(-c2ccncc2)ncc1-c1nnnn1-c1ccccc1 ?
VDR inh: -19%

How did O=C(CSc1nnc(-c2cc3ccccc3cc2O)n1Cc1ccco1)N1CCc2ccccc2C1 do in these assays?
VDR inh: 4%

What do the screens show for `Cc1ccc(NC(=O)c2ccccc2OCC(=O)c2ccccc2)cc1`?
VDR inh: -4%

Results for CC(OC(=O)CNC(=O)c1sc2ccccc2c1Cl)C(=O)NC1(C#N)CCCCC1 (stereo unspecified) ?
VDR inh: 7%

How did COc1cc([N+](=O)[O-])ccc1NC(=O)c1cccc(NC(=O)C(C)C)c1 do in these assays?
VDR inh: 1%

How did CC[C@]12c3[nH]c4cc(-c5ccco5)ccc4c3CCN1C(=O)[C@@H](CC(=O)NCCCN(C)C)C[C@@H]2C(=O)N1CCN(C(=O)C2CC2)CC1 do in these assays?
VDR inh: -9%

How did O=C(CCc1ccccc1)NCCSc1ccccc1 do in these assays?
VDR inh: 8%

How did COc1ccc(CN2CCCCCC2)c(C)c1C do in these assays?
VDR inh: 4%

How did CSc1ccccc1NC(=O)CN(C)CC(=O)NCC(=O)Nc1ccc(F)cc1 do in these assays?
VDR inh: -7%

How did O=C(Cc1ccc(F)cc1)Nc1ccccc1N1CCCC1 do in these assays?
VDR inh: 12%

Results for Cc1cc(/C=N/NC(=O)c2cccc([N+](=O)[O-])c2)c(C)n1-c1ccccc1 ?
VDR inh: -1%

What do the screens show for `c1ccc(CSc2nnc(-c3ccco3)c(-c3ccco3)n2)cc1`?
VDR inh: inconclusive

What do the screens show for `COc1cc(/C=N/NC(=O)c2ccncc2)ccc1OC(=O)c1ccc([N+](=O)[O-])cc1`?
VDR inh: 15%

What do the screens show for `COc1ccc(NS(=O)(=O)c2ccc(-c3ccccn3)s2)cc1`?
VDR inh: -18%

Results for CCCN1CCC(=O)N(CCSc2ccc(OC)cc2)CC1 ?
VDR inh: -4%&2%

How did COc1cccc(CNC(=O)C(=O)NCC(c2cccs2)S(=O)(=O)c2ccccc2)c1 (stereo unspecified) do in these assays?
VDR inh: 14%

What do the screens show for `COc1cccc(CC(NC(C)=O)C(=O)NC2CCN(c3c(Cc4ccccc4)c(C)nc4ncnn34)CC2)c1OC` (stereo unspecified)?
VDR inh: -7%

What do the screens show for `Cn1cccc1C(=O)N1CCC2(CCCN(c3ccccn3)C2)CC1`?
VDR inh: -26%

Results for O=C(Nc1ccc(Oc2ccccc2)cc1)C1CCN(S(=O)(=O)c2ccccc2)CC1 ?
VDR inh: 17%

How did CN(CC(=O)Nc1cccc(F)c1)C(=O)CNS(=O)(=O)c1ccc(N(C)C)c([N+](=O)[O-])c1 do in these assays?
VDR inh: inconclusive

How did CCCC(=O)OCC(=O)Nc1ccc(OC(F)F)cc1 do in these assays?
VDR inh: 8%

How did COCCOc1ccc(C(F)(F)F)cc1NC(=O)COC(=O)c1c(C)noc1C do in these assays?
VDR inh: -1%

What do the screens show for `COc1cccc(-c2cc(C(F)(F)F)c(C#N)c(=O)[nH]2)c1`?
VDR inh: 71µM*

What do the screens show for `CC1=C(C(N)=O)C(c2ccccc2[N+](=O)[O-])n2ncnc2N1` (stereo unspecified)?
VDR inh: 25µM*

Results for Cc1cc(C)c2c(NC(=O)c3ccccc3)c(C(=O)Nc3ccc(F)cc3)sc2n1 ?
VDR inh: 4%

Results for Cc1oc(-c2ccc(C(=O)NCc3ccc(Cl)cc3)cc2)nc1CS(=O)(=O)c1ccccc1 ?
VDR inh: 9%

What do the screens show for `CC(OC(=O)Cn1cnc2c1c(=O)n(C)c(=O)n2C)C(=O)N(C)c1ccccc1` (stereo unspecified)?
VDR inh: -8%

Results for COc1ccc(/C=N/N=C2/NC(=O)C(CC(=O)NC(C)C)S2)cc1 (stereo unspecified) ?
VDR inh: -10%

How did COCCn1c(SCC(=O)Nc2sc(C)c(C)c2C#N)nnc1-c1ccc(OC)cc1 do in these assays?
VDR inh: 9%

How did COC(=O)c1sc(C(F)(F)F)c(-c2ccccc2)c1S(=O)(=O)NC(C)(C)C do in these assays?
VDR inh: -4%

What do the screens show for `CCOc1cc(/C=C/C(=O)c2ccc3c(c2)OCCO3)ccc1OCC(=O)N(C)C`?
VDR inh: 11%

What do the screens show for `COC(=O)c1[nH]c2ccccc2c1Sc1ccccc1`?
VDR inh: -8%

Results for COc1ccc(CNC(=O)COC(=O)c2cc(S(=O)(=O)N3CCOCC3)ccc2O)cc1OC ?
VDR inh: -13%

What do the screens show for `Cc1cccc(N2CCN(Cc3oc(CO)cc(=O)c3O)CC2)c1C`?
VDR inh: 27%

How did CC1C/C(=N/N=C2/NC(=O)CS2)CC(C)(C)C1 (stereo unspecified) do in these assays?
VDR inh: 6%

What do the screens show for `O=C(Cn1cnc2cc([N+](=O)[O-])ccc2c1=O)Nc1cccc(S(=O)(=O)N2CCCCC2)c1`?
VDR inh: -11%

Results for Cc1ccc(Cn2nc(C)c(C(=O)NCC(c3cccs3)N3CCOCC3)c2Cl)cc1 (stereo unspecified) ?
VDR inh: -5%

What do the screens show for `Cc1ccc(CN2CC(C(=O)N3CCN(c4ccccc4Cl)CC3)CC2=O)cc1` (stereo unspecified)?
VDR inh: -8%

Results for Cc1ccc(-c2nn3c(=O)cc(CN4CCN(C(=O)c5ccc(C(C)(C)C)cc5)CC4)nc3s2)cc1 ?
VDR inh: 8%

Pulled by structure from above:
What do the screens show for `Cc1cccc(N2CCN(Cc3oc(CO)cc(=O)c3O)CC2)c1C`?
VDR inh: 27%

How did COCCn1c(SCC(=O)Nc2sc(C)c(C)c2C#N)nnc1-c1ccc(OC)cc1 do in these assays?
VDR inh: 9%

Results for Cc1ccc(Cn2nc(C)c(C(=O)NCC(c3cccs3)N3CCOCC3)c2Cl)cc1 (stereo unspecified) ?
VDR inh: -5%

Results for Cc1ccc(-c2nn3c(=O)cc(CN4CCN(C(=O)c5ccc(C(C)(C)C)cc5)CC4)nc3s2)cc1 ?
VDR inh: 8%

What do the screens show for `COC(=O)c1[nH]c2ccccc2c1Sc1ccccc1`?
VDR inh: -8%

Results for COc1ccc(/C=N/N=C2/NC(=O)C(CC(=O)NC(C)C)S2)cc1 (stereo unspecified) ?
VDR inh: -10%

What do the screens show for `CCOc1cc(/C=C/C(=O)c2ccc3c(c2)OCCO3)ccc1OCC(=O)N(C)C`?
VDR inh: 11%

(cont.)
What do the screens show for `CCCCCCCCCCCCCCCC(=O)OCC(NC(=O)C(Cl)Cl)C(O)c1ccc([N+](=O)[O-])cc1` (stereo unspecified)?
VDR inh: 18%

What do the screens show for `COCCOC(=O)c1[nH]c2c(c1C)C(=O)CC(c1ccc(F)cc1)C2` (stereo unspecified)?
VDR inh: 8%

How did CC(=O)C1CCC2C3CCC4CC(=O)CCC4(C)C3C(O)CC12C (stereo unspecified) do in these assays?
VDR inh: 6%

How did O=S(=O)(NCCc1ccccc1)c1ccc(Br)s1 do in these assays?
VDR inh: 0%

How did CCn1c(SCC(=O)NNC(=O)c2ccc(C)cc2)nnc1-c1ccncc1 do in these assays?
VDR inh: -2%

How did CC(C)Nc1nc(Oc2ccc(Cl)cc2)cc(C(F)(F)F)n1 do in these assays?
VDR inh: -5%

What do the screens show for `CNC(=O)Nc1ccccc1NC(=O)NC`?
VDR inh: 3%

What do the screens show for `O=[N+]([O-])c1ccc(O)c(/C=N/n2cnnc2)c1`?
VDR inh: -12%

What do the screens show for `Clc1ccccc1Cc1cn2cc(-c3ccccc3)nc2s1`?
VDR inh: 8%

How did Cc1cccc(CCNC(=O)CCS(=O)(=O)c2cc3c(cc2C)NC(=O)CO3)c1 do in these assays?
VDR inh: -13%&2%

Results for CC(=O)Nc1ccc(S(=O)(=O)N2CCN(CCC#N)CC2)cc1 ?
VDR inh: -8%

How did CCOc1ccc2oc(=O)cc(CN3CCN(C(=O)c4cccc(Cl)c4)CC3)c2c1 do in these assays?
VDR inh: 8%

Sorted by molar mass (lowest first): four of the compounds above.
What do the screens show for `CNC(=O)Nc1ccccc1NC(=O)NC`?
VDR inh: 3%

How did O=S(=O)(NCCc1ccccc1)c1ccc(Br)s1 do in these assays?
VDR inh: 0%

How did CCn1c(SCC(=O)NNC(=O)c2ccc(C)cc2)nnc1-c1ccncc1 do in these assays?
VDR inh: -2%

How did CCOc1ccc2oc(=O)cc(CN3CCN(C(=O)c4cccc(Cl)c4)CC3)c2c1 do in these assays?
VDR inh: 8%

Following part:
Results for CCOc1ccccc1N(C)C(=O)c1ccc2c(=O)n3c(nc2c1)CCCCC3 ?
VDR inh: -22%

What do the screens show for `O=C(O)Cn1nc(-c2ccccc2)oc1=O`?
VDR inh: 4%

Results for O=C(Oc1ccccc1Cl)c1ccc(-n2cncn2)nc1 ?
VDR inh: 7%

How did COc1ccccc1/C=C/CN1CCC(n2nccc2NC(=O)C2CC2)CC1 do in these assays?
VDR inh: -3%

How did O=C(CSc1nnc(-c2ccccc2F)o1)NC1CCCCC1 do in these assays?
VDR inh: -5%

Results for O=C(CSc1ccc(-c2ccc(F)cc2)nn1)NCCc1ccccc1 ?
VDR inh: -14%

How did Clc1ccc(C2=Nn3c(nnc3-c3n[nH]c4c3CCC4)SC2)cc1Cl do in these assays?
VDR inh: 8%

How did O=C(NCC(=O)N(c1ccccc1F)C(C(=O)NCC1CCCO1)c1ccccc1)c1ccco1 (stereo unspecified) do in these assays?
VDR inh: 13%

Results for NS(=O)(=O)c1cccc(Nc2nc3ccccc3nc2NS(=O)(=O)c2ccc(Cl)cc2)c1 ?
VDR inh: 13%

How did COc1cccc(NC(=S)N2CCn3c(nc4ccccc43)C2)c1 do in these assays?
VDR inh: -3%

Results for Cc1ccc(C)c(NC(=O)CSc2sc3c(O)cc(=O)[nH]c3c2C#N)c1 ?
VDR inh: 13%

Results for Cc1ccc(NS(=O)(=O)c2ccc(CCC(=O)NCCO)cc2)cc1 ?
VDR inh: 20%

What do the screens show for `CC1CN(c2nc3c(c(=O)[nH]c(=O)n3C)n2Cc2ccccc2F)CC(C)O1` (stereo unspecified)?
VDR inh: -2%

Results for COc1ccc(/C=C\C(=O)CC(O)(c2ccccc2)C(F)(F)F)cc1 (stereo unspecified) ?
VDR inh: 50µM*

How did Cc1ccc(Cn2nnnc2CN2CCC(NC(=O)C(C)(C)C)CC2)cc1 do in these assays?
VDR inh: -1%

How did COc1ccc(-n2c(/C=C/c3cccc4ccccc34)nc3ccccc3c2=O)cc1Cl do in these assays?
VDR inh: 10%

Results for CC(=O)c1cc(OC(=O)N2CCOCC2)ccc1OC(=O)N1CCOCC1 ?
VDR inh: 2%

What do the screens show for `COCCCNC(=O)CSc1ccc(Cl)cc1`?
VDR inh: 5%

Results for Nc1cc(N)cc(C(=O)OCC(=O)Nc2cc(S(=O)(=O)N3CCCCC3)ccc2Cl)c1 ?
VDR inh: -8%

What do the screens show for `COc1ccccc1C(CC(=O)N1CCCC1)c1ccc2c(c1)OCO2` (stereo unspecified)?
VDR inh: -7%

How did O=C(N/N=C/c1ccncc1)c1ccc(OCc2ccccc2)cc1 do in these assays?
VDR inh: 4%

What do the screens show for `Cc1ccc(-c2nc(C#N)c(NCc3cccc4c3OCO4)o2)cc1`?
VDR inh: 6%

How did CCC(C)NC(=O)c1c2c(nc3ccccc13)C(=O)N(C1CCCCC1)C2 (stereo unspecified) do in these assays?
VDR inh: 0%

Results for Cc1nc2ccc(NC(=O)CCS(=O)(=O)c3ccccc3)cc2s1 ?
VDR inh: 10%

What do the screens show for `O=C(CCC1N=C2c3ccccc3N=C(SCC(=O)Nc3cccc(Cl)c3)N2C1=O)NCc1ccco1` (stereo unspecified)?
VDR inh: 1%

Results for O=C(/C=C/c1ccco1)Nc1nnc(-c2ccco2)s1 ?
VDR inh: -13%

Results for CCC(C)(C)NC(=O)C(c1ccncc1)N(Cc1ccc(C)cc1)C(=O)c1csnn1 (stereo unspecified) ?
VDR inh: 3%

What do the screens show for `CC(C)S(=O)(=O)c1oc(-c2ccc(F)cc2)nc1S(=O)(=O)c1ccccc1`?
VDR inh: inconclusive

How did Cc1cccc(C)c1NC(=O)c1sc(-n2nc(C)c(Cc3ccccc3)c2C)nc1C do in these assays?
VDR inh: 8%

Results for COCCn1c(CN2CCN(c3ccccc3)CC2)nc2c1c(=O)n(C)c(=O)n2C ?
VDR inh: 18%

What do the screens show for `Cc1cccc2[nH]c3c(N4CCN(C(=O)c5ccco5)CC4)ncnc3c12`?
VDR inh: 4%

How did O=C(Cn1c(=O)n(CC(=O)NCc2ccccc2)c2ccccc21)NCc1ccccc1 do in these assays?
VDR inh: 20%

What do the screens show for `Cc1cccc(C)c1NC(=O)NC1(C(=O)NCc2ccncc2)CCCCC1`?
VDR inh: -11%

What do the screens show for `CCOc1cc(C2C(C(C)=O)=C(C)Nc3ncnn32)ccc1O` (stereo unspecified)?
VDR inh: -3%

What do the screens show for `COc1ccc(S(=O)(=O)N2CCC(C(=O)NCc3ccncc3)CC2)cc1C`?
VDR inh: 14%

What do the screens show for `CCCCCCCC/C=C\CCCCCCCC(=O)N[C@@H](CO)Cc1ccc(O)cc1`?
VDR inh: 31%[activator]

This is a subset, so the mix of outcomes need not match the whole.
